HIV TAR-Tat – TAR RNA-Tat peptide displacers, HIV-1, primary screen, biochemical, FRET, FAM/TAMRA-labeled Tat | HIV-1 TAR RNA, Tat peptide displacement FRET; hits give high values | z-score (no concentration beside the values) | AID 1259389, 2018 | 0.6% of 100,000 active;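 further: score is relative to mean and SD of negative controls; some compounds called inactive have numbers as strong as hits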
CDC25B CDK2 inh – primary biochemical HTRF screen for blockers of M-phase inducer phosphatase 2 binding to CDK2/cyclin A. HTRF CDC25B-CDK2/CyclinA binding, anti-His/anti-Flag; hits give high values. z-score (no concentration beside the values). 0.72% of 94,000 active. AID 1259370, 2018;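 further: score is relative to mean and SD of negative controls; strong numbers were not always called active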
Starred values were filed as active, the others as inactive; · = no result given.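 How the source made its calls: active means z-score from 3 up in half or more of its runs; inactive means the rest.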

Compound	HIV TAR-Tat	CDC25B CDK2 inh
Clc1ccc(OCc2nnc3sc(-c4ccc5c(c4)OCCO5)nn23)cc1	1.09	1.22
COc1ccc2c(c1)CCc1c(C(=O)NCCCn3ccnc3)noc1-2	·	-0.6
COc1ccc2nc(NC(=O)Cn3nc(C)n4cccc4c3=O)sc2c1	1.21	-0.18
Cc1c(-c2csc(Nc3ccc(Cl)cc3)n2)sc2nc(C(F)(F)F)nn12	·	-1.37
COc1ccc(/C=C/C(=O)CC(=O)/C=C/c2cccc(O)c2OC)cc1O	16.4*	·
c1ccc(CCN2CCC(CNc3nn4nnnc4c4ccccc34)C2)cc1 (stereo not drawn)	0.56	0.44
O=C(CCS(=O)(=O)c1cc2c(cc1Cl)NC(=O)CO2)Nc1ccc(F)c(Cl)c1	2.09	·
FC(F)(F)c1cc(-c2cccs2)no1	2	-1.09
CCC(=O)N1c2ccccc2NC2=C(C(=O)CC(C)(C)C2)C1CC1CC=C(C)C1(C)C (stereo not drawn)	-0.49	0.3
COc1cc2c(cc1OC)-c1c(C#N)c(-c3ccc4c(c3)OCO4)c(C(C)=O)n1CC2	·	-2.87
C=CCNC(=O)c1nn(-c2ccccc2Cl)nc1CO	0.75	-0.92
CCOC(=O)CSc1nc2sc3c(c2c(=O)n1-c1ccc(OC)cc1)CCC3	2.54	-0.81
COc1ccc(C(=O)CSc2ccc3nnc(-c4ccccc4)n3n2)cc1	·	-3.59
COc1ccc(S(=O)(=O)N2c3ccc(C)cc3C(C)=CC2(C)C)cc1	1.16	-1.88
COc1cccc(C2CC(=O)Oc3c2c(=O)n(C)c2ccccc32)c1OC (stereo not drawn)	-1.03	-1.32
Cc1ccc(C2=Nn3c(COc4ccccc4)nnc3SC2)cc1	0.94	·
CN(C)CCNC(=O)c1cccc(C(=O)NCCN(C)C)n1	0.9	·
Nc1nc(N)nc(Cn2c(-c3nonc3N)nc3ccccc32)n1	·	0.44
Cc1cc(C)c(CN2CCCN(Cc3ccccc3)S2(=O)=O)c(C)c1	1.34	·
COc1ccccc1N1CC(=O)NC1=O	2.03	-0.7
CSc1ncc(C(=O)NC2CC2)c(-c2ccccc2)n1	1.78	·
CCc1nnsc1C(=O)Nc1sc2c(c1C(=O)NCc1ccco1)CCC2	2.24	·
Cc1cc(C)n2nc(CNc3ccccc3Cl)nc2n1	-1.25	-0.22
Cc1cccc(Nc2ncnc3c2cnn3-c2ccccc2)c1	·	0.32
C=CCOc1ccc(C2Nc3ccccc3S(=O)(=O)N2Cc2ccccc2)cc1OCC (stereo not drawn)	·	-0.24
CC(C)c1ccc(-c2c(N3CCc4ccccc43)c(=O)c2=O)cc1	-0.04	·
CCOC(=O)Cc1cc(=O)n2c(nc3ccccc32)[nH]1	-0.05	-0.8
Cc1ccc2oc(SCc3noc(CCC(=O)Nc4ccc5c(c4)OCO5)n3)nc2c1	1.5	·
Nc1nc(N)c2nc(-c3ccccc3)c(N)nc2n1	-0.29	-0.7
Cc1ccc(NS(=O)(=O)c2c(C)nc3scc(C)n3c2=O)cc1F	1.5	-1.14

An excerpt of these results, as labelled records:
SMILES: Cc1cccc(Nc2ncnc3c2cnn3-c2ccccc2)c1
- HIV TAR-Tat = ·
- CDC25B CDK2 inh = 0.32

SMILES: C=CCOc1ccc(C2Nc3ccccc3S(=O)(=O)N2Cc2ccccc2)cc1OCC (stereo not drawn)
- HIV TAR-Tat = ·
- CDC25B CDK2 inh = -0.24

Next structures follow.
Compound	HIV TAR-Tat	CDC25B CDK2 inh
Cn1c(C(=O)NCc2cccs2)cc2oc3ccccc3c21	1.03	-2.13
COc1cccc(NC(=O)C2CC3CCCN3C23C(=O)N(C)c2ccccc23)c1 (stereo not drawn)	-0.91	·
CC1CN(c2nc3c(c(=O)n(C)c(=O)n3C)n2C)CC(C)O1 (stereo not drawn)	-0.7	-1.8
Cc1ccc(S(=O)(=O)N(CCO)CCO)cc1	2.31	-0.31
Brc1ccc2[nH]c3c(c2c1)CN(Cc1ccccc1)CC3	·	-0.7
CC(=O)Oc1ccc(C2C(C#N)=C(N)SC(N)=C2C#N)cc1	·	-1.44
Cc1nn(-c2ccccc2)c2c1nc(CCC(=O)O)c(=O)n2C	1.24	2.94
CC(C)(C)c1onc(OCP(=O)(O)O)c1CC(N)C(=O)O (stereo not drawn)	·	-0.84
CCOC(=O)c1cc(-c2cccs2)on1	·	-2.4
CCN(Cc1ccccc1)S(=O)(=O)c1ccc(-c2ccc(=O)[nH]n2)s1	-0.19	·
NC(=O)c1nc(Nc2ccccc2)sc1NC(=O)C1CCCCC1	0.62	·
Cc1cc(C)cc(N2C(=O)N(Cc3cccc(F)c3)C3CS(=O)(=O)CC32)c1 (stereo not drawn)	-0.12	·
CC(=O)Nc1ccc(S(=O)(=O)NCCCN2CCN(Cc3ccccc3)CC2)cc1Cl	·	-1.34
O=C(Nc1ccc(F)c(Cl)c1)Nc1nnc(N2CCCC2)s1	1.03	-0.56
Cc1cccc(C(=O)OCc2cc(=O)n3cc(C)sc3n2)c1	1.7	·
CN(C(=O)[C@H]1[C@@H]2C[C@@H]3[C@H]1C(=O)O[C@@H]3C2)c1ccccc1Cl	2.16	-1.82
O=C1C(Oc2ccccc2)C(c2ccc3c(c2)OCO3)N1c1cccc(C(F)(F)F)c1 (stereo not drawn)	·	-2.36
CCCCC1CCC(C(=O)NCc2csc(C)n2)CC1 (stereo not drawn)	7.84	-0.11
O=C(CN1C2=NCCCN2c2ccccc21)c1cccc2ccccc12	1.92	-0.06
O=C(Cn1cnc(S(=O)(=O)N2CCOCC2)c1)NC1CCCCC1	0.96	·
CCN1CCN(CCCNC(=O)C2CCN(C(=O)c3cc4sccc4n3C)CC2)CC1	-0.06	-1.08
CCn1nc(C)c(CNS(=O)(=O)c2c(C)noc2C)c1C	0.8	·
O=c1cc(CSc2n[nH]c(-c3ccccc3)n2)nc2sc(C3CC3)nn12	0.09	·
COc1ccc(OC)c(CNc2nc(NCC3COCCO3)nc3c2cnn3C)c1 (stereo not drawn)	1.68	·
O=C(CCCN1C(=O)CSc2ncccc21)N1CCCCC1	1.2	0.62
Cc1noc(/C=C/c2ccc(S(=O)(=O)Nc3ccc(Cl)cc3)cc2)c1[N+](=O)[O-]	0.74	·
C=CCn1c(SCC(=O)c2ccc(Cl)cc2)nc2cc(C(=O)NCc3ccco3)ccc2c1=O	2.05	·
O=S1(=O)C[C@H](N2CCN(Cc3ccccc3)CC2)[C@@H](S(=O)(=O)c2cccs2)C1	-0.28	-0.77
Cc1nc2c3ccccc3n3c(CCCC(=O)NCC4CCCO4)nnc3n2n1 (stereo not drawn)	1.66	-1.05
CC1=Nc2cc(C(=O)NCc3ccco3)ccc2Sc2c(C)ccc(C)c21	1.59	-0.17
O=C(NCCCN1CCOCC1)Nc1noc2c1COc1ccccc1-2	3.3	·
Cc1nc(-c2ccc(C)c(S(=O)(=O)N3CCN(c4cc(Cl)ccc4C)CC3)c2)cs1	0.11	·
c1cc2c(cc1CNCc1ccc3c(c1)OCO3)OCO2	0.45	-1.18
COc1ccccc1CNc1nc(NCCCO)nc2c1cnn2C	0.5	·
C=CCOc1ccc(C2C(C#N)=C(N)OC3=C2C(=O)CC(C)(C)C3)cc1 (stereo not drawn)	·	-0.8
COc1ccc(NC(=O)c2nc(-n3cnnc3)ccc2Br)c(OC)c1	1.54	·
CSc1ccc(N2C(=O)N3CCCN3C2c2ccccc2F)cc1 (stereo not drawn)	2.96	-1.25
Cc1cc(OCc2nc(-c3ccccn3)no2)ccc1Cl	-0.91	0.35
CCC1CCCCN1Cc1nc2c(c(=O)n(C)c(=O)n2C)n1CC(N)=O (stereo not drawn)	·	-0.21
C=CCn1c(NCc2cc(OC)ccc2OC)nc2ccccc21	2.24	-1.66
O=C(NC1CC1)c1cn(-c2cccc(Cl)c2)nn1	0.17	·
O=C(NCCC1=CCCCC1)c1cccn2c(=O)c3c4c(sc3nc12)CCCC4	-3.08	·
CCC(C)(C)NS(=O)(=O)c1ccc2c(c1)NC(=O)CS2	1.53	·
COCCNC(=O)c1c(C)oc2nc(C)nc(N3CCOCC3)c12	0.9	·
Fc1ccccc1-c1nn2c(Cc3ccccc3)nnc2s1	-0.59	0.74
O=C(CSc1nc2c(c(=O)[nH]1)CCCC2)Nc1ccc(F)c(Cl)c1	0.24	-1.24
CN(C)/C=C(\C#N)S(=O)(=O)/C(C#N)=C/N(C)C	·	0.07
CCc1ccc(N2C(=O)C3N=NN(Cc4cc(=O)n5ccccc5n4)C3C2=O)cc1 (stereo not drawn)	-1.21	-0.54
O=C(c1cccn1-c1nnc(N2CCCC2)s1)N1CCN(c2ccc(Cl)cc2)CC1	1.07	·
Cc1ccc(CSc2nc3ccncc3n2Cc2ccc(C(=O)NCC3CCCO3)cc2)cc1 (stereo not drawn)	-0.05	-1.55
Cc1nn(CC(=O)Nc2c(F)cc(F)cc2Br)c(=O)c2cccn12	-0.31	-0.98
Cc1nc2ccccn2c1-c1csc(Nc2ccccc2)n1	1.47	0.33
CCOC(=O)NS(=O)(=O)c1ccccc1Cl	·	-0.58
CC(C)CC(C(=O)NC1CCCCC1)N1Cc2ccccc2C1=O (stereo not drawn)	-1.26	·
COc1ccc(Cn2c(CO)cnc2SC(C)C)cc1	2.6	·
CCN(CC)S(=O)(=O)c1c(C)nn(S(=O)(=O)c2ccc(Cl)cc2)c1C	0.65	·
COc1cccc(-c2nc(=S)c3c([nH]2)Oc2cc(O)ccc2C3)c1OC	-5.5	-1.79
c1cc2nncn2nc1N1CCSCC1	·	-1.78
c1cc2c(cc1NCc1nnc3n1CCCCC3)OCO2	-2.07	·
CCOc1cc(C2Nc3ccccc3-c3cc(C)nn32)ccc1O (stereo not drawn)	-0.64	-0.68

Part of the list above in order of SMILES length, highest first:
Compound	HIV TAR-Tat	CDC25B CDK2 inh
C=CCOc1ccc(C2Nc3ccccc3S(=O)(=O)N2Cc2ccccc2)cc1OCC (stereo not drawn)	·	-0.24
CC(C)(C)c1onc(OCP(=O)(O)O)c1CC(N)C(=O)O (stereo not drawn)	·	-0.84
O=C(NCCCN1CCOCC1)Nc1noc2c1COc1ccccc1-2	3.3	·

Following part
Compound	HIV TAR-Tat	CDC25B CDK2 inh
Cc1cc(=O)n2[nH]c(-c3ccc(Cl)cc3)cc2n1	1.18	0.31
COc1cc(NC(=S)NNS(=O)(=O)c2ccc(C)cc2)c(OC)cc1Cl	·	0.11
CC(N)=O	·	1.2
Nc1cc(=O)[nH]c(SCn2nnc3ccccc3c2=O)n1	·	2.46
CCOC(=O)c1sc2nc(C)n(Cc3csc(-c4ccc(Cl)cc4)n3)c(=O)c2c1C	1.97	-1.67
CC(C)OCCCNS(=O)(=O)c1csc(C(N)=O)c1	2.15	·
COc1cccc(OC(C)c2nc3ccccc3[nH]2)c1 (stereo not drawn)	-0.05	-1.98
CCOc1ccc(-c2noc(-c3scc(-c4cccc(C)c4)c3-n3cccc3)n2)cc1OC	1.49	-0.96
CN(C(=O)c1noc2c1CCc1sccc1-2)c1ccc(F)cc1	-0.1	·
Cc1cc(OCC(O)Cn2c(C)nc3ccccc32)cc(C)c1Cl (stereo not drawn)	0.42	-1.64
Cc1cc(N2CCC(C)CC2)n2ncc(-c3ccc(F)cc3)c2n1	0.28	-0.31
CCC(=O)N1c2ccc(S(=O)(=O)N3CCN(C)CC3)cc2CC1C (stereo not drawn)	1.31	·
CS/C(NCc1cccnc1)=C(/C#N)C(=O)C1CC1	·	-0.12
COCCOC(=O)C1=C(C)Nc2nc3ccccc3n2C1c1cccc(O)c1 (stereo not drawn)	-1.31	-1.37
Cc1onc(-c2c(F)cccc2Cl)c1NC(=O)OCc1sccc1-n1c(C)ccc1C	·	-3.28
CSCCC(NC=O)C(=O)NC(C)C(=O)O (stereo not drawn)	1.33	·
CCCOc1c(Br)cc(C2C3=C(CCCC3=O)N(CC)C3=C2C(=O)CCC3)cc1OC	1.03	0.14
Cc1cc(Cl)ccc1OCc1nc(-c2ccc3c(c2)[nH]c(=O)n3C2CCCC2)no1	-1.14	·
Cc1ccc2nc(NC(=O)C3CCCN3S(=O)(=O)c3cccc4nsnc34)sc2c1 (stereo not drawn)	·	-2.68
CCc1ccc(O)c(C(=O)c2cnc3cc(-c4ccccc4)nn3c2)c1	-0.97	-1.42
O=C(CN1CCN(C2CCCCC2)C(=O)C1=O)NC1CCCCC1	0.95	·
CCCCCCCCCCCCCCCCn1c(N)nc2ccccc21	·	-2.48
COc1ccc(-c2nc(SCc3cc(=O)n4[nH]c(-c5ccccc5)nc4n3)n[nH]2)cc1	1.94	·
O=C(CN1C(=O)c2cccnc2Oc2ccccc21)N1CCCCC1	0.99	·
CC(C)C(=O)N(c1ccc2oc(=O)sc2c1)S(=O)(=O)c1ccc(Br)cc1	-0.12	-1.35
O=c1c(NCCC2=CCCCC2)c(-c2ccccc2)c1=O	0.89	·
Cc1cccc2c1NC(=O)C2(O)CC(=O)c1ccccc1 (stereo not drawn)	-1.24	-3.58

High-throughput results deposited in PubChem by Center for Chemical Genomics, University of Michigan.
